# rRNA inh HTS: reduced GFP signal of wild-type E. coli, primary screen, bacterial rRNA inhibitor project, GFP/RFP fluorescence, OD600, single point; E. coli WT GFP vs humanized-ribosome RFP mutants, 24 h; active compounds read low; DMSO median 0, no signal -100; AID 720706, 2013; GFP signal change (wild-type ribosome), % (test concentration not listed); 1.6% of 350,000 active;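 active means significant combined selectivity score with lowered wild-type GFP, culture density cut under 30%, mutant RFP and density less affected; inactive means any of these conditions unmet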; further: one replicate is shown; some compounds called inactive have numbers as strong as hits
# AF4-AF9 inh: inhibitors of AF4 peptide binding to AF9, primary screen, biochemical, AlphaScreen, biotin-AF4 peptide, FLAG-AF9, single point. Protein AF-9 (Homo sapiens), P42568. inhibition, % at 10 µM. 0.47% of 350,000 active. AID 651704, 2012;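 active means every replicate reaching a set inhibition limit, whatever the replicate mean, cut at about 25% in these data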;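 further: 0% = plate neutral control median and 100% = total signal loss; the record names both 10 and 1 µM as test concentration; the first replicate is given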
# Target sequence (P42568 whole entry, looked up): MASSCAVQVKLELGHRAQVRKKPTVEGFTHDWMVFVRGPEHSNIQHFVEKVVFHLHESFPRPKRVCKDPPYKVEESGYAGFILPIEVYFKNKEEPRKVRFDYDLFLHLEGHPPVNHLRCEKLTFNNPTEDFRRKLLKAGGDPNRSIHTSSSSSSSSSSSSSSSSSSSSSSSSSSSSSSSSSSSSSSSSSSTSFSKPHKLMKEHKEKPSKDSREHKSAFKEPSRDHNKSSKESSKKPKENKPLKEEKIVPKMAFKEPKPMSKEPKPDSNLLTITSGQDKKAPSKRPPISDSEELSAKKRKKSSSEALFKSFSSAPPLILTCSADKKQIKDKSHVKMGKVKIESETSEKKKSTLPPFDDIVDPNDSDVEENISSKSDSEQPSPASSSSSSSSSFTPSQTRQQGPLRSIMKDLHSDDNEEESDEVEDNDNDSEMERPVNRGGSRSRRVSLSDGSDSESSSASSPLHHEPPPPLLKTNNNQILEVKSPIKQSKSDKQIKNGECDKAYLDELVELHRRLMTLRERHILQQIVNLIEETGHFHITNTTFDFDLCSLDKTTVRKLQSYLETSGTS
# rRNA inh HTS OD600: second read-out of rRNA inh HTS, no call of its own (marks repeat the call); OD600 change, %; measured here: OD600 growth;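 optical density of the mix in the first replicate; 0 = DMSO median and -100 = no signal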
# rRNA inh HTS RFP: second read-out of rRNA inh HTS, no call of its own (marks repeat the call); RFP signal change, %; measured here: RFP humanized mutant strains;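 first replicate; 0 = DMSO median and -100 = no signal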
# Starred values were filed as active, the others as inactive.
SMILES,rRNA inh HTS,rRNA inh HTS OD600,rRNA inh HTS RFP,AF4-AF9 inh
Cc1ccccc1S(=O)(=O)N1C[C@H](O)COC[C@@H]2O[C@@H](CC(=O)NCc3ccccc3Cl)CC[C@H]21,-1,-4,3.6,2.1
C[C@H](CO)N1C[C@H](C)[C@@H](CN(C)Cc2ccc(F)cc2)Oc2cc(Br)ccc2S1(=O)=O,-23,-41,-2.7,0.1
COc1ccccc1S(=O)(=O)N[C@H]1CC[C@H](CC(=O)N2CCCCC2)O[C@H]1CO,1,6,-1.1,-12
C[C@@H]1CN([C@@H](C)CO)S(=O)(=O)c2ccc(-c3ccc(C(=O)N(C)C)cc3)cc2O[C@H]1CN(C)C(=O)Nc1ccccc1F,-3,-5,-1.1,-1.5
COc1ccc(-c2cnc3c(c2)C(=O)N([C@H](C)CO)C[C@H](C)[C@@H](CN(C)Cc2ccccn2)O3)cc1,2,11,2.0,-2.3
COc1ccc2cc3[n+](cc2c1O)CCc1cc2c(cc1-3)OCO2,6,11,0.8,0.4
CC1(C(=O)NCC(F)(F)F)CCN1C(=O)Cc1ccc(-c2ccccc2)cc1 (configuration not stated),-8,-4,1.9,0.3
Cc1cccc(CN2CCSCCS2(=O)=O)c1,-8,-2,3.1,-3.5
COc1ccc(CN(C)C[C@@H]2OCCCC[C@H](C)Oc3ccc(NS(=O)(=O)c4cn(C)cn4)cc3C(=O)N([C@@H](C)CO)C[C@H]2C)cc1,1,7,-2.3,-8.3
C[C@H]1CN([C@@H](C)CO)C(=O)c2cc(NC(=O)Cn3cnnn3)ccc2O[C@H]1CN(C)S(C)(=O)=O,2,2,-2.3,-1.0
COc1ccc2c3c(n(C)c2c1)[C@@H](CO)N(CC1CC1)CC31CN(C(C)=O)C1,3,2,-1.7,-7.9
COc1cccc(NC(=O)C[C@H]2CC[C@H]3[C@@H](COc4ccc(NC(=O)C5CCCCC5)cc4C(=O)N3C)O2)c1,-8,-13,1.2,3.2
O=C(c1cccc(F)c1)N1CC(=O)N2[C@H](CO)[C@H](c3ccc(C#Cc4ccc(F)cc4)cc3)[C@@H]2C1,-12,-59,30,-3.4
CN(C)CCN(C)C1CN(Cc2ccc([N+](=O)[O-])cc2)S(=O)(=O)C1 (configuration not stated),18,15,2.6,0.8
CC(=O)N1CCCCN2[C@@H](CO)[C@@H](c3ccc(Br)cc3)[C@@H]2C1,7,-2,1.6,-3.2
C[C@@H]1CCCCO[C@H](CN(C)Cc2ccccc2)[C@@H](C)CN([C@@H](C)CO)C(=O)c2cc(NC(=O)c3ccncc3)ccc2O1,-1,11,-2.9,-1.5
CC=Cc1ccc2n(c1=O)C[C@H]1[C@H](CO)[C@@H](C(=O)NCc3ccccc3Cl)N(S(C)(=O)=O)[C@@H]21 (mixture of isomers),0,-1,-0.7,3.1
C[C@@H]1CN([C@H](C)CO)C(=O)c2cc(NC(=O)C3CCCCC3)ccc2O[C@H]1CN(C)Cc1ccc2c(c1)OCO2,0,3,-2.7,1.0
COc1ccc(-c2ccc3c(c2)O[C@@H](CN(C)CC2CCOCC2)[C@@H](C)CN([C@@H](C)CO)S3(=O)=O)cc1,-2,-3,-1.2,1.6
CN1[C@@H]2c3ccc(-c4cccc(F)c4)c(=O)n3C[C@@H]2[C@@H](CO)[C@@H]1C(=O)NC1CCCCC1,-6,-22,2.9,-0.6
CO[C@H]1CN(C)C(=O)c2cc(NC(=O)c3cc(C)on3)ccc2OC[C@@H](C)N(C(=O)C2CC2)C[C@@H]1C,2,1,0.0,-0.7
CCCNC(=O)[C@H]1[C@H](CO)[C@H]2Cn3c(ccc(C4=CCCC4)c3=O)[C@H]2N1C(=O)CC,1,11,-0.1,-1.2
CC(C)NC(=O)Nc1ccc2c(c1)CC(=O)N([C@@H](C)CO)C[C@H](C)[C@@H](CN(C)C(=O)NC(C)C)O2,0,11,3.0,-1.9
C[C@@H]1CN([C@H](C)CO)C(=O)c2ccccc2-c2ccccc2CO[C@@H]1CN(C)Cc1ccc(C(=O)O)cc1,6,9,-6.2,-4.3
O=S(=O)(c1ccc(F)cc1)N1CCCCN2[C@H](CO)[C@H](c3ccc(-c4cncnc4)cc3)[C@@H]2C1,-6,-4,-0.7,-0.5

# Reformatted: entries from further up.
# Screens in order: rRNA inh HTS	rRNA inh HTS OD600	rRNA inh HTS RFP	AF4-AF9 inh
O=C(c1cccc(F)c1)N1CC(=O)N2[C@H](CO)[C@H](c3ccc(C#Cc4ccc(F)cc4)cc3)[C@@H]2C1
→ -12	-59	30	-3.4
C[C@@H]1CN([C@H](C)CO)C(=O)c2ccccc2-c2ccccc2CO[C@@H]1CN(C)Cc1ccc(C(=O)O)cc1
→ 6	9	-6.2	-4.3
CO[C@H]1CN(C)C(=O)c2cc(NC(=O)c3cc(C)on3)ccc2OC[C@@H](C)N(C(=O)C2CC2)C[C@@H]1C
→ 2	1	0.0	-0.7
Cc1cccc(CN2CCSCCS2(=O)=O)c1
→ -8	-2	3.1	-3.5
CC=Cc1ccc2n(c1=O)C[C@H]1[C@H](CO)[C@@H](C(=O)NCc3ccccc3Cl)N(S(C)(=O)=O)[C@@H]21 (mixture of isomers)
→ 0	-1	-0.7	3.1
CCCNC(=O)[C@H]1[C@H](CO)[C@H]2Cn3c(ccc(C4=CCCC4)c3=O)[C@H]2N1C(=O)CC
→ 1	11	-0.1	-1.2

# Further compounds follow:
SMILES,rRNA inh HTS,rRNA inh HTS OD600,rRNA inh HTS RFP,AF4-AF9 inh
COc1ccc2c3c([nH]c2c1)[C@H](CO)N(Cc1ccc2c(c1)OCO2)CC31CN(C(=O)Nc2c(C)noc2C)C1,-4,-2,4.7,-1.2
COC(=O)Cc1nnn2c1[C@H](C)[C@H](c1cccc(OC)c1OC)OCC2,14,5,3.2,-2.3
CCNC(=O)Nc1ccc2c(c1)C(=O)N(C)[C@H]1CC[C@@H](CC(=O)NC3CCCCC3)O[C@@H]1CO2,6,16,-3.6,-3.7
CC1(C(=O)Nc2ccccc2)Cc2c(-c3cccc(C(F)(F)F)c3)ccnc2O1 (configuration not stated),8,10,-3.0,2.5
C[C@H](CO)N1C[C@H](C)[C@@H](CN(C)C(=O)Nc2ccc(F)cc2)OCCCC[C@H](C)Oc2ccc(NC(=O)Nc3ccc(C(F)(F)F)cc3)cc2C1=O,0,5,-1.3,-15
COc1ccc2c3c([nH]c2c1)[C@H](CO)N(C(=O)c1ccccn1)CC31CN(C(=O)C2CCCC2)C1,-2,-1,-1.7,-6.2
CC(=O)N(C)C[C@@H]1OCc2ccccc2-c2ccccc2C(=O)N([C@@H](C)CO)C[C@@H]1C,3,8,-1.8,-4.5
CN1c2ccc(Br)cc2[C@H]2[C@H](CCN2C(=O)C2CCC2)[C@@H]1CO,1,6,4.1,2.1
CO[C@H]1CN(C)C(=O)c2cc(NS(=O)(=O)c3ccc(Cl)cc3)ccc2OC[C@H](C)NC[C@H]1C,1,-3,0.2,-17
Cc1ccc(S(=O)(=O)N2CCN(C(=O)COC(=O)/C=C/c3cccc(Cl)c3)CC2)c(C)c1,16,15,-0.6,-0.8
CN1CCN(c2ccc(CNC(=O)C3Cc4c(-c5ccc(Cl)cc5)ccnc4O3)cc2)CC1 (configuration not stated),-25,-49,5.9,15
COc1ccc2c3c(n(C)c2c1)[C@@H](CO)N(C(=O)CN(C)C)CC31CCN(Cc2cncnc2)CC1,2,5,-1.0,-1.5
CCCNC(=O)C1(C)CCCN(C(=O)c2sccc2C)C1 (configuration not stated),12,12,0.2,-1.0
CO[C@H]1CN(C)C(=O)c2cc(NC(=O)c3ccno3)ccc2OC[C@H](C)NC[C@H]1C,8,-3,0.1,-4.8
C[C@@H]1CN([C@H](C)CO)C(=O)c2cccc(NS(C)(=O)=O)c2O[C@H]1CN(C)Cc1ccc(C(=O)O)cc1,2,7,-0.9,-1.2
C[C@@H]1CN([C@@H](C)CO)S(=O)(=O)c2ccc(C#Cc3cccnc3)cc2O[C@H]1CN(C)CC1CCCC1,-5,-3,1.4,-0.5
O=C(NCC[C@@H]1CC[C@@H](NS(=O)(=O)c2cccc(F)c2)[C@H](CO)O1)Nc1cc(F)ccc1F,0,-6,7.7,-10
C[C@@H]1CCCCO[C@H](CN(C)S(C)(=O)=O)[C@H](C)CN([C@@H](C)CO)C(=O)c2cc(NC(=O)NC3CCCCC3)ccc2O1,-1,-1,-1.3,-1.5
C[C@@H]1CN([C@H](C)CO)C(=O)c2cc(NC(=O)c3ccccc3)ccc2O[C@@H](C)CCCCO[C@@H]1CN(C)C(=O)c1ccncc1,-3,1,2.0,-0.4
C[C@H]1CN([C@@H](C)CO)C(=O)c2cc(C#CC(C)(C)O)cnc2O[C@@H]1CN(C)C(=O)CC1CC1,3,-1,-2.8,-3.3
COc1ccc(NC(=O)Nc2ccc3c(c2)[C@@H]2C[C@H](CC(=O)N[C@@H](C)c4ccccc4)O[C@H](CO)[C@@H]2O3)cc1,1,8,-4.3,-2.5
C[C@@H]1CN([C@@H](C)CO)C(=O)Cc2cc(NS(=O)(=O)c3ccccc3)ccc2O[C@H]1CN(C)Cc1ccc(C(F)(F)F)cc1,-2,-12,6.4,-4.1
CCC(=O)Nc1ccc2c(c1)OC[C@H](C)N(CCC(F)(F)F)C[C@@H](C)[C@@H](OC)CN(C)C2=O,-4,0,-1.1,-0.5
O=C(C[C@@H]1C[C@H]2c3cc(NC(=O)NC4CCCCC4)ccc3O[C@H]2[C@H](CO)O1)NCCc1ccccc1,0,-1,-0.4,-25
COc1ccc2c3c(n(C)c2c1)[C@H](CO)N(Cc1ccc2c(c1)OCO2)CC31CN(C(=O)C2CC2)C1,-2,1,1.5,0.0
# Next part
SMILES,rRNA inh HTS,rRNA inh HTS OD600,rRNA inh HTS RFP,AF4-AF9 inh
COCc1c(C(=O)Nc2ccc(C)c(S(=O)(=O)N3CCOCC3)c2)oc2ccccc12,-12,-18,11,-22
O=C(C[C@@H]1C[C@@H]2c3cc(NC(=O)NC4CCCC4)ccc3O[C@@H]2[C@@H](CO)O1)NCc1ccc2c(c1)OCO2,1,12,-3.2,-0.4
Cc1cn([C@H]2C[C@H](O)[C@@H](/C=C/C(=O)NCCN3CCCCC3)O2)c(=O)[nH]c1=O,3,3,-0.3,-0.1
O=C(C1CCCC1)N1CC2(C1)[C@H](c1ccccc1)[C@@H](CO)N2Cc1cncnc1,2,2,-2.1,1.2
N#C[C@H]1[C@H](c2ccccc2-c2cccc(F)c2)[C@H](CO)N1C(=O)CN1CCOCC1,6,6,1.3,-1.7
C[C@H](CO)N1C[C@H](C)[C@@H](CN(C)S(=O)(=O)c2ccc(Cl)cc2)Oc2ccc(NC(=O)C3CC3)cc2CC1=O,-4,-11,3.5,-0.8
CN(C)C(=O)C[C@@H]1CC[C@H]2[C@@H](COC[C@H](O)CN2C(=O)c2ccncc2)O1,7,13,0.1,-0.6
Cc1ccc(S(=O)(=O)Nc2ccc(Nc3nccn4c(-c5ccc6ccccc6c5)cnc34)cc2)cc1,-11,-3,49,-1.4
CCC(=O)N(C)C[C@@H]1Oc2cc(-c3cccc(F)c3)ccc2S(=O)(=O)N([C@H](C)CO)C[C@H]1C,-1,-13,-1.6,2.8
O=C(NC1CCCCC1)N[C@H]1C=C[C@H](CC(=O)N2CCOCC2)O[C@@H]1CO,1,1,-1.0,-4.7
C[C@H](CO)N1C[C@H](C)[C@H](CN(C)S(=O)(=O)c2ccc(F)cc2)OCCCC[C@H](C)Oc2ccc(NS(=O)(=O)c3ccccc3)cc2C1=O,-2,-3,-0.6,1.3
C[C@H]1CN([C@@H](C)CO)C(=O)c2cc(C#CC3CCCCC3)cnc2O[C@H]1CN(C)Cc1ccncc1,0,-29,17,7.7
COc1ccc(NC(=O)C2(C)Cc3c(-c4ccc(NC(C)=O)cc4)ccnc3O2)cc1 (configuration not stated),-8,-8,-3.5,1.6
COc1ccc2c3c([nH]c2c1)[C@H](CO)N(C(=O)c1cccnc1)CC31CN(C(=O)NC(C)C)C1,4,3,-0.4,0.7
O=C(CCN1CCCCC1)N[C@@H]1CC[C@@H](CCNS(=O)(=O)c2ccc(F)cc2)O[C@H]1CO,1,7,-0.6,1.8
Cc1ccccc1S(=O)(=O)N1CC[C@@H]2[C@H](CO)Nc3ccc(-c4ccccc4)cc3[C@@H]21,-2,-31,28,-2.3
COc1ccc(-c2cc(NC(C)=O)c3ncc(-c4cccc(C(F)(F)F)c4)n3c2)c(OC)c1,2,16,6.8,-1.9

# Quoted at random: five entries already listed, in no set order.
SMILES,rRNA inh HTS,rRNA inh HTS OD600,rRNA inh HTS RFP,AF4-AF9 inh
COc1ccc2cc3[n+](cc2c1O)CCc1cc2c(cc1-3)OCO2,6,11,0.8,0.4
O=C(CCN1CCCCC1)N[C@@H]1CC[C@@H](CCNS(=O)(=O)c2ccc(F)cc2)O[C@H]1CO,1,7,-0.6,1.8
C[C@@H]1CCCCO[C@H](CN(C)S(C)(=O)=O)[C@H](C)CN([C@@H](C)CO)C(=O)c2cc(NC(=O)NC3CCCCC3)ccc2O1,-1,-1,-1.3,-1.5
C[C@@H]1CCCCO[C@H](CN(C)Cc2ccccc2)[C@@H](C)CN([C@@H](C)CO)C(=O)c2cc(NC(=O)c3ccncc3)ccc2O1,-1,11,-2.9,-1.5
CN1c2ccc(Br)cc2[C@H]2[C@H](CCN2C(=O)C2CCC2)[C@@H]1CO,1,6,4.1,2.1

# Compound activity deposited in PubChem by Broad Institute.

# An excerpt. The share of hits here may be higher or lower than overall.
